Screens deposited in PubChem by National Center for Advancing Translational Sciences (NCATS).
PMP22 txn prim – PMP22 gene transcription modulation. S16 Pmp22-F2sN Schwann cells (luciferase reporters placed in the Pmp22 gene), FLuc/NLuc coincidence luminescence, 24 h. Potency, µM (highest dose often 57.5 µM), for the others: top-dose activity change, negative = inhibition, hits mostly inhibitors. 2% of 43,000 active. AID 1508649; active = clear falling dose curves in both reporters; inconclusive = both reporters move, but less clearly or upward; inactive = either reporter flat; the % is the NLuc reporter signal; note: % is set by controls: 0 for no effect and ±100 for the full control effect; some results filed as inactive show a strong effect at the top dose
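S16 Schwann cells carrying FLuc/NLuc coincidence reporter in the Pmp22 3' UTR treated with compound 24 h at 37C; FLuc then NLuc luminescence read sequentially by dual-luciferase reagents.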
HTT promoter inh – inhibits huntingtin promoter activity; 0.93% of 48,000 active; HEK293 HTT promoter firefly luciferase reporter (activity 0% = vehicle and -100% = no light), 24 h; Potency, µM (series often up to 57.5 µM), inactives show top-dose activity change, negative = inhibition, hits mostly inhibitors; active = well fitted inhibition curve with a large enough effect; inconclusive = small, poorly fitted or top-dose-only effect; inactive = no such curve, though single readings can be large or run the other way; note: nearly all actives have a fitted effect of over 50% in size
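HEK293 cells carrying firefly luciferase reporters were seeded at 2,500 per well in Opti-MEM and cultured for 24 h. They were then treated with compounds at up to 57.5 uM final for 24 h at 37 degrees C before Dual-Glo luminescence readout.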
The depositor's hits bear a star; & = joins results of further samples; [ ] = dose if it differs, or a comment. Potency is the fitted concentration of half-maximal effect.

COc1cc(OC)cc(-n2c(=O)c3ccccc3n(CC(=O)NCCc3ccc(OC)c(OC)c3)c2=O)c1 was read as PMP22 txn prim -13% and HTT promoter inh -8%.
For Cc1cc(C)cc(OCCn2c(CCNC(=O)C3CCCCC3)nc3ccccc32)c1 the results were PMP22 txn prim 7% and HTT promoter inh -2%.
`COc1ccc(CCn2cc3c(c2-c2ccccc2Br)c(=O)n(C)c(=O)n3C)cc1OC` gave PMP22 txn prim inconclusive and HTT promoter inh -17%.
For COc1cc(NC(=O)CCc2c(C)nc3cc(-c4ccccc4)nn3c2C)cc(OC)c1OC the results were PMP22 txn prim inconclusive and HTT promoter inh 4µM*.
`CCN1CCN(Cc2c(O)ccc3c(C)c(-c4ccccc4)c(=O)oc23)CC1` gave PMP22 txn prim inconclusive and HTT promoter inh -20%.
CCCCc1ccc(NC(=O)CSc2nc(=O)[nH]c3c2CCCC3)cc1 was read as PMP22 txn prim inconclusive and HTT promoter inh inconclusive.
`COc1ccc(OC)c(-n2cnc3cc(C(=O)NC4CCCCCC4)ccc32)c1` gave PMP22 txn prim -9% and HTT promoter inh -3%.
Screening Cc1ccc2nc(CN3CCN(C(=O)Nc4cccc(C)c4C)CC3)oc2c1 returned PMP22 txn prim 0% and HTT promoter inh inconclusive.
For COc1ccc(-c2csc(-c3nc(-c4ccc(Br)s4)cs3)n2)cc1F the results were PMP22 txn prim inconclusive and HTT promoter inh -17%.
For CCCn1c(CCC(=O)Nc2cccc(CC)c2)nc2cccnc21 the results were PMP22 txn prim 2% and HTT promoter inh inconclusive.
CC(C)OC(=O)OCOP(=O)(CO[C@H](C)Cn1cnc2c(N)ncnc21)OCOC(=O)OC(C)C was read as HTT promoter inh 2%&-7%.
Cc1ccc2c(c1)N(C(=O)N1CCC(C(=O)Nc3cccc(F)c3)CC1)CCO2 was read as PMP22 txn prim -24% and HTT promoter inh -27%.
For C#C[C@]1(O)CC[C@@H]2[C@@H]3CCc4cc(O)ccc4[C@H]3CC[C@@]21C the results were HTT promoter inh -25%.
`O=C(Nc1ccc(F)cc1F)c1cnn(-c2ccc(F)cc2)c1-n1cccc1` gave PMP22 txn prim 2% and HTT promoter inh -30%.
`COc1cccc2cc(C(=O)Nc3ccc(CC(=O)O)cc3)c(=O)oc12` gave PMP22 txn prim -17% and HTT promoter inh 0.28µM*.
For O=C(CCCCCCCCC#CI)Oc1ccccc1 the results were HTT promoter inh -3%.
`Cc1c(C(=O)NCc2cccc(Cl)c2)sc2nc[nH]c(=O)c12` gave PMP22 txn prim inconclusive and HTT promoter inh -12%.
CN1C(C(=O)Nc2ccc(OC(F)(F)F)cc2)=CC(c2cccs2)=NS1(=O)=O was read as PMP22 txn prim inconclusive and HTT promoter inh inconclusive.
Screening CCN(CC)c1ccc(NC(=O)Cn2ncc3c(C)n(Cc4ccccc4F)c(C)c3c2=O)c(C)c1 returned PMP22 txn prim -16% and HTT promoter inh 7%.
Screening Cn1c(=O)[nH]c(=O)c2c1nc1n(CCO)c(-c3ccccc3)cn21 returned PMP22 txn prim inconclusive and HTT promoter inh 7%.
For COc1ccc(-c2cnn3c(C)cc(C)nc23)cc1OC the results were PMP22 txn prim -1% and HTT promoter inh 7%.
COc1ccc(-c2noc(CSc3nnc(-c4ccccc4)n3-c3ccc(F)cc3)n2)c(OC)c1 was read as PMP22 txn prim inconclusive and HTT promoter inh inconclusive.
`COc1ccc(CNC(=O)Cc2c(C)c3cc4c(C)coc4c(C)c3oc2=O)cc1OC` gave PMP22 txn prim 7% and HTT promoter inh -5%.
Cc1cccc(NC(=O)Cn2c(=O)n(CCCCCC(=O)NCc3ccccc3)c(=O)c3sccc32)c1 was read as PMP22 txn prim inconclusive and HTT promoter inh -30%.
For Cc1noc2ncnc(N3CCCC(C(=O)Nc4cccc(C(F)(F)F)c4)C3)c12 (stereo not given) the results were PMP22 txn prim inconclusive and HTT promoter inh inconclusive.
For COc1ccc(S(=O)(=O)c2c(SC)nn(CC(=O)Nc3ccc(C)c(Cl)c3)c2N)cc1 the results were PMP22 txn prim inconclusive and HTT promoter inh inconclusive.
Cc1cccc(NC(=O)CCS(=O)(=O)c2ccc3c(c2)n(C)c(=O)c(=O)n3C)c1C was read as PMP22 txn prim -26% and HTT promoter inh -1%.
COc1ccc(NC(=O)C(=O)Nc2ccc3nc4n(c(=O)c3c2)CCCCC4)c(OC)c1 was read as PMP22 txn prim 11% and HTT promoter inh 15%.
Screening COc1ccccc1NC(=O)C1=C(C)Nc2c(C(=O)Nc3cccc(C)c3)cnn2C1c1ccccc1C (stereo not given) returned PMP22 txn prim 15% and HTT promoter inh -14%.
For COc1cc(OC)cc(C(=O)Nc2cc(-c3nc4cc(Cl)ccc4o3)ccc2Cl)c1 the results were PMP22 txn prim -8% and HTT promoter inh 52%[activator].
Screening COc1cc(C(=O)N2CCc3c([nH]c4ccccc34)C2c2ccc(F)cc2)cc(OC)c1OC (stereo not given) returned PMP22 txn prim inconclusive and HTT promoter inh inconclusive.
For Cc1nc2cccnc2n1-c1cccc(C(=O)N2CCN(c3cccc(Cl)c3)CC2)c1 the results were PMP22 txn prim inconclusive and HTT promoter inh inconclusive.
`CC1(C)CCC(CN2CCN(c3ccc(C(=O)NS(=O)(=O)c4ccc(NCC5CCOCC5)c([N+](=O)[O-])c4)c(Oc4cnc5[nH]ccc5c4)c3)CC2)=C(c2ccc(Cl)cc2)C1` gave HTT promoter inh -4%.
`COc1ccc(CNC(=O)c2nc(SC(C)C)ncc2Cl)cc1` gave PMP22 txn prim -55% and HTT promoter inh -22%.
For CCOc1ccc(NC(=O)CCNS(=O)(=O)c2cccc3nsnc23)cc1 the results were PMP22 txn prim 11% and HTT promoter inh -4%.
For COc1ccccc1/C=C/c1nc(C#N)c(N(C)C)o1 the results were PMP22 txn prim inconclusive and HTT promoter inh 79%[activator].
Screening Cc1ccc(-n2ncc(C(=O)NCCN3CCN(C)CC3)c2C2CCN(C(=O)OC(C)(C)C)CC2)cc1C returned PMP22 txn prim -19% and HTT promoter inh 1%.
`Cc1ccc(-c2cc(C(F)(F)F)c(C#N)c(SCC(=O)O)n2)cc1` gave PMP22 txn prim -28% and HTT promoter inh inconclusive.
Cc1cccc(C)c1NC(=O)NCCCN1CCN(c2ccccc2)CC1 was read as PMP22 txn prim 6% and HTT promoter inh -10%.
`CC(C)OCCCNC(=O)CCCn1c(SCC(=O)c2ccc(Br)cc2)nc2c(sc3ccccc32)c1=O` gave PMP22 txn prim -11% and HTT promoter inh -15%.
Cc1cc(C)c2c(=O)cc(CSc3n[nH]c(C)n3)[nH]c2c1 was read as PMP22 txn prim -10% and HTT promoter inh 6%.
Screening Cc1ccc(CNC(=O)c2c(C)oc3ncnc(N4CCOCC4)c23)cc1 returned PMP22 txn prim -12% and HTT promoter inh -19%.
`CC(=O)c1ccc(NC(=O)C2CCC(CNS(=O)(=O)c3cccc4nsnc34)CC2)cc1` (stereo not given) gave PMP22 txn prim -1% and HTT promoter inh 0%[11.5 µM].
Screening Cc1nnc(N2CCCC(C(=O)NCCc3ccc(Cl)cc3)C2)c2nn(-c3ccccc3)c(C)c12 (stereo not given) returned PMP22 txn prim inconclusive and HTT promoter inh -23%.
`O=C(C1CCC1)N1CCCc2cc(S(=O)(=O)Nc3ccc(F)cc3)ccc21` gave PMP22 txn prim 0% and HTT promoter inh inconclusive.
For CCc1ccc(NC(=O)CSc2nc3c(c(=O)[nH]2)CN(Cc2ccc(C)cc2)CC3)cc1 the results were PMP22 txn prim -8% and HTT promoter inh inconclusive.
Screening COc1ccc(-c2ccnc3c2c(=O)n(C)c(=O)n3C)cc1OC returned PMP22 txn prim -10% and HTT promoter inh -3%.
For CC(C)(C)C(=O)Nc1cccc(C(=O)OCc2cc(=O)n3nc(C4CCCCC4)sc3n2)c1 the results were PMP22 txn prim -3% and HTT promoter inh -6%.
Cc1ccc(CNC(=O)c2ccc(CSCc3ccc(C)cc3)o2)cc1 was read as PMP22 txn prim -8% and HTT promoter inh inconclusive.
Screening CCc1ccccc1NC(=O)c1ccc2c(c1)N(Cc1cccc(Cl)c1)C(=O)c1ccccc1S2(=O)=O returned PMP22 txn prim -20% and HTT promoter inh -9%.
Screening CCOc1ccc(CCNC(=O)C2Cc3ccccc3N2C(=O)CC)cc1OCC (stereo not given) returned PMP22 txn prim -3% and HTT promoter inh -5%.
`CCOc1nc(NC(=O)NS(=O)(=O)Oc2ccc(Cl)cc2)nc(-c2ccccc2)n1` gave PMP22 txn prim -11% and HTT promoter inh 42%[activator].
For O=C(CCCCn1c(=O)[nH]c2ccsc2c1=O)N1CCN(c2cccc(Cl)c2)CC1 the results were PMP22 txn prim inconclusive and HTT promoter inh inconclusive.
Screening Cc1cc(C)c(S(=O)(=O)NCCc2cc3ccc(C)cc3[nH]c2=O)c(C)c1 returned PMP22 txn prim -22% and HTT promoter inh -24%.
For CC(CNC(=O)c1ccc(Cn2c(SCc3ccccc3)nc3cccnc32)cc1)c1ccccc1 (stereo not given) the results were PMP22 txn prim -123% and HTT promoter inh inconclusive.
For CN(C)CCN1C(=O)c2ccccc2N(C)c2ccccc21 the results were HTT promoter inh 4%.
`COc1ccc(C(=O)CN2C(=O)N(c3cc(C)ccc3C)S(=O)(=O)c3ccccc32)cc1` gave PMP22 txn prim 11% and HTT promoter inh -17%.
CCc1ccccc1N(C)C(=O)c1nn(-c2ccc(OC)cc2)c(=O)c2c1c1ccccc1n2C was read as PMP22 txn prim inconclusive and HTT promoter inh -6%.
Screening CCC(=O)Nc1nnc(S(=O)(=O)N(C)Cc2ccccc2)s1 returned PMP22 txn prim 13% and HTT promoter inh 1%.
Screening COCCCNC(=O)CSc1nc2c(sc3ccccc32)c(=O)n1CCc1ccccc1 returned PMP22 txn prim 8% and HTT promoter inh 1%.
`Cc1ccc(CN2CCSc3ccc(C(=O)Nc4cc(C)cc(C)c4)cc32)cc1` gave PMP22 txn prim -66% and HTT promoter inh -19%.
O=C(c1ccc2c(c1)CCN2S(=O)(=O)c1ccccc1)N1CCN(c2ccccc2F)CC1 was read as PMP22 txn prim 27% and HTT promoter inh -9%.
`CCC1CN(C(=O)N2CCC(C(=O)NCc3ccc(OC)cc3OC)CC2)c2cc(C)ccc2O1` (stereo not given) gave PMP22 txn prim -10% and HTT promoter inh inconclusive.
Cc1ccc(CN(Cc2ccco2)C(=O)COc2c(C)cc(C)cc2C)cc1 was read as PMP22 txn prim inconclusive and HTT promoter inh inconclusive.
`Cc1sc2ncn(CC(=O)Nc3cccc(C(F)(F)F)c3)c(=O)c2c1S(=O)(=O)N1CCC(C)CC1` gave PMP22 txn prim inconclusive and HTT promoter inh -17%.
`Cc1ccc(Sc2ccc(N3CCC(C(=O)Nc4ccc(C)c(F)c4)CC3)nn2)cc1` gave PMP22 txn prim inconclusive and HTT promoter inh 3%.
`C[C@@H](Oc1cc(-c2cnn(C3CCNCC3)c2)cnc1N)c1c(Cl)ccc(F)c1Cl` gave HTT promoter inh inconclusive.
`Cc1cc(C(=O)Nc2cccc(C)c2C)c2c(C)nn(-c3cccc(F)c3)c2n1` gave PMP22 txn prim 3% and HTT promoter inh -10%.
For COc1cccc(-n2cc(C(=O)Nc3cccc(C(F)(F)F)c3)c3ccccc3c2=O)c1 the results were PMP22 txn prim 35% and HTT promoter inh -23%.
Screening O=C(CCC(=O)N1Cc2ccccc2Oc2ncccc21)Nc1ccc(Cl)cc1 returned PMP22 txn prim -18% and HTT promoter inh -34%.
COc1cccc(NC(=O)c2sc3nc(N4CCOCC4)c4c(c3c2N)CC(C)(C)OC4)c1 was read as PMP22 txn prim -55% and HTT promoter inh 39%[activator].
For COc1ccc(CNCc2ccc3c(c2)n(C)c(=O)n3C)cc1 the results were PMP22 txn prim -32% and HTT promoter inh -14%.
Screening Cc1ccc(C)c(N2CCN(C(=O)C3CCN(S(=O)(=O)c4ccc5[nH]c(=O)oc5c4)CC3)CC2)c1 returned PMP22 txn prim inconclusive and HTT promoter inh inconclusive.
`Cc1ccccc1NC(=O)/C(C#N)=C/c1ccc(Cl)cc1Cl` gave PMP22 txn prim -34% and HTT promoter inh -10%.

2 entries picked at random from those above:
`Cc1cc(C(=O)Nc2cccc(C)c2C)c2c(C)nn(-c3cccc(F)c3)c2n1` gave PMP22 txn prim 3% and HTT promoter inh -10%.
`Cc1sc2ncn(CC(=O)Nc3cccc(C(F)(F)F)c3)c(=O)c2c1S(=O)(=O)N1CCC(C)CC1` gave PMP22 txn prim inconclusive and HTT promoter inh -17%.

An excerpt from above in order of count of non-hydrogen atoms, falling:
Screening Cc1ccc(C)c(N2CCN(C(=O)C3CCN(S(=O)(=O)c4ccc5[nH]c(=O)oc5c4)CC3)CC2)c1 returned PMP22 txn prim inconclusive and HTT promoter inh inconclusive.
COc1cccc(NC(=O)c2sc3nc(N4CCOCC4)c4c(c3c2N)CC(C)(C)OC4)c1 was read as PMP22 txn prim -55% and HTT promoter inh 39%[activator].
For COc1cccc(-n2cc(C(=O)Nc3cccc(C(F)(F)F)c3)c3ccccc3c2=O)c1 the results were PMP22 txn prim 35% and HTT promoter inh -23%.
Cc1ccc(CN(Cc2ccco2)C(=O)COc2c(C)cc(C)cc2C)cc1 was read as PMP22 txn prim inconclusive and HTT promoter inh inconclusive.
`Cc1ccccc1NC(=O)/C(C#N)=C/c1ccc(Cl)cc1Cl` gave PMP22 txn prim -34% and HTT promoter inh -10%.

Hits appear at their usual frequency. About 2.4% of those tested had a hit in this group.
